Source: PubChem BioAssay
NPR1 antag: human Npr1 receptor antagonism; P16066; HEK293 hNpr1 GloSensor cGMP, ANP-stimulated luminescence; Potency, µM (doses to about 46.3 µM), for inactives: top-dose activity change, negative = inhibition, usual class: inhibitors; hit rate 1.6% among 76,000; AID 1347048; active = well fitted inhibition curve with a large enough effect; inconclusive = small, poorly fitted or top-dose-only effect; inactive = no such curve, though single readings can be large or run the other way;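 further: nearly all actives have a fitted effect of over 60% in size; nearly all hits also lower the signal before the agonist is added; a reference antagonist and vehicle were the controls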
Target sequence (P16066 whole entry, looked up): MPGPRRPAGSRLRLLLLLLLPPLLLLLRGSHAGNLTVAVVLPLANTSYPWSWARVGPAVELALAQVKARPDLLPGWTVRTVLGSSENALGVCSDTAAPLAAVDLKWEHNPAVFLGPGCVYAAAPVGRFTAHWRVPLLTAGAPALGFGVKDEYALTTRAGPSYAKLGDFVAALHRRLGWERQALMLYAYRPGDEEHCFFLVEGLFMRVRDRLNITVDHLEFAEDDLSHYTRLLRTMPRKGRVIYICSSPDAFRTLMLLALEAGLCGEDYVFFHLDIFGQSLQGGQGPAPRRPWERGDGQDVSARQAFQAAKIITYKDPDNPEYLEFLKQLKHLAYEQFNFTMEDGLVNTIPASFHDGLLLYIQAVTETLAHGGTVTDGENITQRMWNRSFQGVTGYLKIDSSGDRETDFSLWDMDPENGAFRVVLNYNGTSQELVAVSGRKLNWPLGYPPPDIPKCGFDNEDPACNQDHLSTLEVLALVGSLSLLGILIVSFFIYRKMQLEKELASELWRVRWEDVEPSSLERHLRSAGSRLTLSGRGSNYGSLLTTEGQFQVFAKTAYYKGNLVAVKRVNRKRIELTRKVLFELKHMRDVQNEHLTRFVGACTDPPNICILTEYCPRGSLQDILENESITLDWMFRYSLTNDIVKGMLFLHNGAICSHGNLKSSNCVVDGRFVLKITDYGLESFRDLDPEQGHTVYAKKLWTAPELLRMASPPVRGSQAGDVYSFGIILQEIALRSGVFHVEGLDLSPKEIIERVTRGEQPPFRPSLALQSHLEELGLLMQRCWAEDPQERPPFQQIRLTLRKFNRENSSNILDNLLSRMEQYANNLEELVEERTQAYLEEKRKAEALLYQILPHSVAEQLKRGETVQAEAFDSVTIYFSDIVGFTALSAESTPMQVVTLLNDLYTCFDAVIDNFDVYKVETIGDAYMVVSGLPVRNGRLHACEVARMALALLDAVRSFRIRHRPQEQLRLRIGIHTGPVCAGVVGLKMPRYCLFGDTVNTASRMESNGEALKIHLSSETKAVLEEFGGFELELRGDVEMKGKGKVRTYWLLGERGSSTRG
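HEK293 cells stably expressing human Npr1 and cGMP GloSensor pGS-40F, loaded 2 h with 2% GloSensor reagent, given compound 30 min at room temperature. Luminescence read before and 20 min after 0.1 nM hNppA.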
The depositor's hits bear a star; ? = inconclusive; & = joins results of further samples; [ ] = another dose, or the depositor's remark. On the % scale 0 is the no-effect control and ±100 the full control effect; potency means the concentration at half of the fitted maximal effect. These rows are one share of the data; count on the stated rates, not on these rows.

cpd | canonical_smiles | NPR1 antag
1 | Cc1cc(C)cc(C(=O)Nc2ccc3c(N4CCCC4)ncnc3c2)c1 | -6.5%
2 | CN1C(=O)CCC2(CNC(=O)NCCc3ccccc3)CCCC=C12 (stereo not drawn) | 0.4%
3 | CCCS(=O)(=O)N1CCC(Oc2ccccc2-c2nc(-c3ccncc3)no2)C1 (stereo not drawn) | 7.4%
4 | COC(=O)c1ccc(CN2C(=O)[C@@H]3C[C@@H](O)CN3C3(CN(Cc4cccc(OC(F)(F)F)c4)C3)C2=O)cc1 | ?
5 | COc1ccccc1/C=C/CN1CCNC(=O)C1CC(=O)NCc1ccon1 (stereo not drawn) | 0.0%
6 | Cc1nc(CN2C[C@H](C(=O)NCc3ccc4c(c3)OCO4)C[C@@H]2c2ccc(F)cc2)cs1 | 2.3%
7 | CN(Cc1ccc(-c2ccccc2)cc1)Cc1cccc2ccccc12 | 12.6%
8 | CCN1c2cc(C(=O)N3CCN(c4cccc(C)c4)CC3)ccc2C(=O)N2CCCCC21 (stereo not drawn) | -1.0%
9 | O=C(NCc1ccnc2[nH]ccc12)c1ccc2c(c1)OCO2 | 6.0%[70.6 µM]
10 | CN(C)C[C@@H]1CN(S(C)(=O)=O)C[C@H]1NC(=O)c1nccn1C | 2.9%
11 | O=C(NCc1ccnc2[nH]ccc12)c1ccccn1 | -20.9%[70.6 µM]
12 | Cc1nnnn1CCC(=O)Nc1nn(C)c2cccc(Oc3cccnc3)c12 | 1.7%
13 | CC(C)(C)c1ccnc(N[C@H]2CO[C@H]3[C@@H]2OC[C@@H]3NC(=O)CCCC(=O)O)n1 | -3.2%[70.6 µM]
14 | CCS(=O)(=O)NCC(=O)N1CCCCCNC(=O)CC1c1ccccc1 (stereo not drawn) | 2.2%
15 | CCN(CC)C(=O)c1cn2ccnc(-c3ccc(C)cc3)c2n1 | -1.3%
16 | Cc1noc(-c2cccn3c(CNC(=O)c4cccc(F)c4)nnc23)n1 | -9.5%
17 | Cc1cccc(NC(=O)C2CC(=O)N(c3n[nH]c4cccc(F)c34)C2)c1 (stereo not drawn) | -6.0%
18 | COc1cccc(CC(=O)N2CCC(c3noc(CO)n3)C2)c1 (stereo not drawn) | 0.4%
19 | O=C(c1cnccn1)N1CC(F)(F)C[C@H]1c1nc(C2CC2)no1 | -0.1%
20 | Cc1cccc(-c2nc3cnccn3c2NCCC(=O)N2CCCCC2)c1 | 1.6%
21 | O=C(N[C@@H]1CN(c2ncccn2)C[C@H]1CO)c1ccc(F)cc1 | -0.4%
22 | COc1ccc(-c2ccccc2NC(=O)C2CCCN(Cc3cccnc3)C2)cc1 (stereo not drawn) | 0.0%
23 | O=C(Cc1cccnc1)N1CCCC(c2nc(CCOCC3CCCC3)no2)C1 (stereo not drawn) | 0.5%
24 | Cc1[nH]nc2c1C(c1cccc(F)c1)C(C#N)=C(N)O2 (stereo not drawn) | -0.3%
25 | CC1CCC(NC(=O)C2CCN(C(=O)c3ncn4c3COC(c3ccc(F)cc3)C4)CC2)CC1 (stereo not drawn) | -0.7%
26 | OCC1CN(Cc2ccc(Cl)cc2)CC12CCNCC2 (stereo not drawn) | -1.9%
27 | COCCNC(=O)C1COC2(CCN(C(=O)c3ccccc3C)CC2)N1C(=O)c1cccc(OC)c1 (stereo not drawn) | -0.5%
28 | c1cncc(CN2CCn3c(nnc3C3CCCNC3)C2)c1 (stereo not drawn) | 0.0%&-14.8%[70.6 µM]
29 | CC1(C)NC(=O)N(CC(=O)N[C@H](Cc2ccccn2)C2CC(O)C2)C1=O (stereo partly drawn) | 7.0%
30 | O=C(O)CC1(CC(=O)N[C@H]2CO[C@H]3[C@@H]2OC[C@@H]3n2nnnc2Oc2ccc(-n3cncn3)cc2)CCCC1 | 1.9%
31 | COc1cc(F)c(CN2CCN(C)C3(CCNC(=O)CC3)C2)c(F)c1 (stereo not drawn) | 15.0%
32 | O=C1CCN(S(=O)(=O)c2ccccc2)CCCN(C(=O)NC2CCCCC2)CCN1 | -1.6%
33 | OC1CCOC2(CCN(Cc3ccncc3)CC2)C1 (stereo not drawn) | 1.2%
34 | COCCN1C(=O)CS(=O)(=O)C12CCN(C(=O)c1ccc(F)cc1F)CC2 | -2.4%
35 | N#Cc1ccc(C(=O)N2CCCN(Cc3ccncc3)C(c3ccccc3)CC(=O)NCC2)cc1 (stereo not drawn) | -4.7%
36 | CCOc1ccc2c(n1)CCN(C(=O)c1nccn1C)C2 | -0.6%
37 | Cc1noc(C2CCCCCN2C(=O)c2ccccc2)n1 (stereo not drawn) | 1.5%
38 | COCc1nc(CCNC(=O)c2cc(C)n(C)n2)no1 | 8.0%
39 | O=C(N[C@@H]1CCN(C(=O)c2ccc3cc[nH]c3c2)C[C@H]1O)c1cnccn1 | 1.7%
40 | COc1ccc(S(=O)(=O)Nc2ccc(C)n(CC(=O)O)c2=O)cc1 | -1.0%
41 | Cc1nn(C)c(C)c1S(=O)(=O)N1CCC(c2noc(-c3ccccc3)n2)C1 (stereo not drawn) | -11.9%
42 | CC(C)c1nc(CNC(=O)c2ccc(CC3CCCNC3)cc2)cs1 (stereo not drawn) | 4.2%
43 | Cc1ccc(N2CCN(C(=O)c3ccc4c(c3)N(C)C3CCCCCN3C4=O)CC2)cc1 (stereo not drawn) | -16.6%
44 | CCC(=O)N1CCC(n2c(C)cnc2-c2cccnc2)CC1 | 2.8%
45 | COc1cccc(Nc2cn(C)c(=O)n3cc(COc4ccccc4)nc23)c1 | 3.2%[70.6 µM]
46 | CC1(C(=O)N2CCCC2C(=O)Nc2ccccc2Oc2cccnc2)CC1 (stereo not drawn) | -0.6%
47 | Cc1nc(C)c(C(=O)N(C)C2CCc3nn(CC4CC4)c(=O)n3CC2)s1 (stereo not drawn) | 7.8%
48 | Cc1noc(C2CC3(CCN(C(=O)Cc4c[nH]c5ccccc45)CC3)CN2C)n1 (stereo not drawn) | -4.6%

Laid out differently: results already given.
33. OC1CCOC2(CCN(Cc3ccncc3)CC2)C1 (stereo not drawn)
  NPR1 antag = 1.2%

34. COCCN1C(=O)CS(=O)(=O)C12CCN(C(=O)c1ccc(F)cc1F)CC2
  NPR1 antag = -2.4%

35. N#Cc1ccc(C(=O)N2CCCN(Cc3ccncc3)C(c3ccccc3)CC(=O)NCC2)cc1 (stereo not drawn)
  NPR1 antag = -4.7%

36. CCOc1ccc2c(n1)CCN(C(=O)c1nccn1C)C2
  NPR1 antag = -0.6%

The list continues:
cpd | canonical_smiles | NPR1 antag
49 | CS(=O)(=O)N(C1CCOCC1)C1CN(C(=O)NCc2ccccc2)C1 | 6.5%
50 | Cc1nc(-c2ccc(Cl)cc2)n(Cc2cc(F)cc(F)c2)c(=O)c1CCO | -21.3%
51 | Cc1ccc(OCC(=O)N[C@@H]2CCOC[C@H]2Oc2cccc(F)c2)cc1C | -14.8%
52 | CCCc1noc(-c2cn(C3CCN(C(=O)c4cc(F)ccc4F)CC3)nn2)n1 | 0.0%
53 | CC1(c2ccccc2)N(Cc2ccccc2)C(=O)OC12CCN(Cc1ccncc1)CC2 (stereo not drawn) | -2.9%[70.6 µM]
54 | O=C(N[C@H]1CCN2C(=O)c3cc(-c4ccsc4)ccc3NC(=O)[C@@H]2C1)c1cccs1 | -11.4%
55 | CC(C)c1ccc(-c2nc(C3CC(=O)N(c4ccc(F)c(Cl)c4)C3)no2)cc1 (stereo not drawn) | ?
56 | CN1C(=O)c2cccn2CC1CNC(=O)c1cc(-c2ccccc2)n[nH]1 (stereo not drawn) | -0.4%
57 | COC(=O)[C@@H](Cc1cccnc1)NC(=O)[C@H]1CN(C(=O)c2cccnc2)CCN1C(=O)C1CCCCC1 | 4.4%
58 | Cc1ccc(CNC(=O)N2CCCCCNC(=O)[C@@H]3CCCC[C@@H]32)cc1 | 9.9%
59 | Cc1cc(C)n(C2CCN(c3nccc(-c4ccccn4)n3)C2)n1 (stereo not drawn) | -14.0%
60 | Cc1cccc(-n2cc(CN3CCCC(C)(O)C3)c(-c3cccc(F)c3)n2)c1 (stereo not drawn) | 5.7%
61 | COC(=O)c1ccc2nc(C[C@@H]3C[C@@H](C(C)C)[C@H](CNC(=O)c4ccccc4)C=C3C)[nH]c2c1 | -17.9%
62 | O=C(c1cn2cc(Cl)ccc2n1)N1CCc2nc(-c3ccccc3)[nH]c2C1 | -3.1%
63 | Cc1noc(-c2ccc(OC3CN(C(=O)Cc4ccsc4)C3)cc2)n1 | -18.5%
64 | Cn1cccc1CN1C[C@@H](CO)[C@H](c2ccncc2)C1 | 3.9%
65 | COc1cccc(CN2CCC(N3C(=O)C4(CCCCC4)C3c3ccncc3)CC2)c1OC (stereo not drawn) | -3.8%
66 | Cn1cccc1C(=O)N1CC(c2nc(CCOCC3CCCC3)no2)C1 | -1.2%
67 | CCN1c2cc(C(=O)NCc3ccc(Cl)cc3)ccc2C(=O)N2CCCCC21 (stereo not drawn) | -4.7%
68 | CN1C(=O)CC(C(=O)O)C12CCN(Cc1ccc(CCC(C)(C)O)cc1)CC2 (stereo not drawn) | 0.9%
69 | Cc1cc(NC(=O)N2CCCC(Cn3cnc4cccnc43)C2)ccc1Br (stereo not drawn) | -6.7%
70 | CC(C)CNC(=O)N1C[C@@H](Oc2cccnc2)C[C@H]1C(=O)N1CCOCC1 | 0.7%
71 | Cc1ccc2c(C)c(C(=O)N3CCCn4cncc4C3)oc2c1 | 8.1%
72 | CN(C)C[C@H]1C[C@H](CO)CN(C(=O)c2cccc(CCC(C)(C)O)c2)C1 | 0.3%

Three entries from above, as labelled records.
69) Cc1cc(NC(=O)N2CCCC(Cn3cnc4cccnc43)C2)ccc1Br (stereo not drawn)
  NPR1 antag = -6.7%

68) CN1C(=O)CC(C(=O)O)C12CCN(Cc1ccc(CCC(C)(C)O)cc1)CC2 (stereo not drawn)
  NPR1 antag = 0.9%

70) CC(C)CNC(=O)N1C[C@@H](Oc2cccnc2)C[C@H]1C(=O)N1CCOCC1
  NPR1 antag = 0.7%

(further entries)
cpd | canonical_smiles | NPR1 antag
73 | c1cnc(-c2n[nH]c(C3CCCCN3)n2)cn1 (stereo not drawn) | 5.6%
74 | CCOCCn1c(=O)n(Cc2noc(C(C)(C)C)n2)c2cc(C(=O)O)cnc21 | -2.3%
75 | COc1ccc(C(=O)N2CCc3ccc(C(=O)NCc4cccc(C)c4)cc32)cc1 | -26.7%
76 | COc1ccc(CNC(=O)c2ccc3c(c2)N(C)C2CCCCN2C3=O)c(OC)c1 (stereo not drawn) | -15.0%
77 | CNC(=O)N1CCC2(CC1)CN(C(C)=O)CC2COC (stereo not drawn) | 6.0%
78 | N#Cc1cccnc1N1CCN(Cc2ccccc2F)C(CCO)C1 (stereo not drawn) | -8.7%
79 | O=C(C[C@@H]1CCNC[C@@H]1Cc1cc(CSc2ccccc2)on1)NCc1cccs1 | 0.3%
80 | CNC(=O)N1CCC(C2CCN(C(=O)c3cnccc3C)C2)CC1 (stereo not drawn) | -1.9%
81 | COc1ccc(CN(C)Cc2csc(C)n2)cc1CN1CCCC1 | -2.9%
82 | COCCC(=O)N1Cc2c(ncn2Cc2ccccc2)C[C@H]1C(=O)OC | 7.7%[70.6 µM]
83 | O=C1CC2(CCN(C(=O)c3cnn4ccccc34)CC2)CN1Cc1ccccc1 | 13.9%
84 | CO[C@@]1(C)C[C@@H](O)C12CCN(C(=O)C1(c3ccccc3F)CC1)CC2 | 27.6%
85 | COc1ccc(-c2[nH]nc3ncc(C(=O)NCCc4ccccc4)nc23)c(C)c1 | -12.5%[70.6 µM]
86 | CN(C)c1nc(-c2ccccc2)nc2c1CCN(C(=O)C1CC13CCC3)C2 (stereo not drawn) | 5.8%
87 | CCN1CCN(c2ccc3nnc(C(C)C)n3n2)CC1 | 0.6%
88 | CCOc1ccccc1CNC(=O)C(C)C1CCOCC1 (stereo not drawn) | 10.2%
89 | COCc1nc(-c2cccc(NC(=O)CC[C@H]3NC(=O)c4ccccc4NC3=O)c2)n[nH]1 | 0.0%
90 | COCCNC(=O)CC1=C2CCCCC2NC1=O (stereo not drawn) | -3.4%
91 | Cc1ccc(NC(=O)CCC2CCN(C(=O)c3ccccc3)CC2)cc1F | -25.7%
92 | CN1CCC(OC2CCN(C(=O)CC3CCCC3)CC2)CC1 | -1.2%
93 | COc1cccc(CNC(=O)N(C)C2CCc3nn(CC4CC4)c(=O)n3CC2)c1 (stereo not drawn) | 5.5%
94 | O=C(CCC1CCCCC1)NC1CCN(c2ccc(=O)n(CC3CC3)n2)CC1 | ?
95 | O=C(C1CC(=O)N(c2n[nH]c3cccc(F)c23)C1)N1CCC(Cc2ccccc2)CC1 (stereo not drawn) | -15.8%
96 | Cc1ccc(-c2cc(N3CCCN(C(=O)c4ccccn4)CC3)n[nH]2)cc1C | -0.7%
97 | CN1CCCCCCN(C(=O)Nc2ccc3c(c2)OCCO3)CCC1=O | -29.5%
98 | Cc1cnc(C2CC2)n1C1CCCN(C(=O)C(C)C)C1 (stereo not drawn) | 4.9%
99 | O=C([C@H]1C[C@H](Oc2cccnc2)CN1C(=O)c1nccc2ccccc12)N1CCOCC1 | 3.9%
100 | O=C(NCCC1=CCCCC1)c1ccc(Cn2ccn3nc4c(c3c2=O)CCCC4)cc1 | -22.3%
101 | O=C1[C@@H]2C[C@@H](O)CN2C2(CN(Cc3cccc(OC(F)(F)F)c3)C2)C(=O)N1Cc1ccccc1F | 4.4%
102 | Cc1nc(CCNS(=O)(=O)c2c(C)noc2C)no1 | 5.8%
103 | CCCNC(=O)N(CCC)CC1CCOC1 (stereo not drawn) | 3.4%
104 | CCCN1CCc2[nH]cnc2C12CCN(C(=O)Cc1ccc3c(c1)OCO3)CC2 | 2.3%
105 | CC1(C(=O)Nc2ccccc2F)COCc2cnc(Nc3ccccc3)nc21 (stereo not drawn) | -18.6%[70.6 µM]
106 | C=CCNC(=O)[C@@H]1Cc2cn(Cc3nccn3C)c3cccc(c23)[C@H](CC(C)C)N1 | -2.3%[70.6 µM]
